rRNA inh HTS = reduced GFP signal of wild-type E. coli, primary screen, bacterial rRNA inhibitor project, GFP/RFP fluorescence, OD600, single point; E. coli WT GFP vs humanized-ribosome RFP mutants, 24 h; stronger effect = lower value; DMSO median 0, no signal -100; GFP signal change (wild-type ribosome), % (no concentration beside the values); 350,000 tested, 1.6% active; AID 720706, 2013;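 active = significant combined selectivity score with lowered wild-type GFP, culture density cut under 30%, mutant RFP and density less affected; inactive = any of these conditions unmet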; note: one replicate is shown; some compounds called inactive have numbers as strong as hits
Bfl-1 A1 inh = caspase 3/7 activation in MEF A1-2A-BIM cells, primary screen, A1 inhibitor project, cell-based, luminescence, HTS | Caspase-Glo 3/7 luminescence, 3 h; percent of clofoctol response, vehicle zero | caspase activation, % (test concentration not listed) | 330,000 tested, 0.066% active | AID 2462, 2010;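 active = over half of replicate activation scores above 10%, or exactly half above 10 with the replicate mean above 10; inconclusive = replicate mean below 10 yet half the replicates above 10; inactive = over half of replicates below 10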;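 note: wells of about 30 µL received 50 nL stock; many hits fall short of the cut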
Beta cell apopt = inhibitors of cytokine-induced beta cell apoptosis, primary screen, luminescence; INS-1E cytokine-induced death, ATP luminescence, 48 h; percent of positive-control rescue, neutral wells zero; protection from apoptosis, % (test concentration not listed); 300,000 tested, 0.8% active;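 active = all replicates at 75% or more, or half of them and the mean; inconclusive = half reach 75% but not the mean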;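 note: 0% = cytokine-treated negative control wells and 100% = positive control rescue; higher means more ATP so stronger rescue from cytokine killing; wells of about 40 µL received 100 nL stock; the first replicate is given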
LANA-H2B inh = blockers of LANA interaction with H2A/H2B – biochemical, FP readout, HTS, primary screen. Protein LANA1 (Human herpesvirus 8 type P (isolate GK18)), Q9QR71. cell-free LANA-H2A/H2B peptide, fluorescence polarization. inhibition, % (concentration not given with the values). 320,000 tested, 0.6% active. AID 2629, 2010; in the data active = inhibition mostly above about 10%, no sharp cut-off; inactive = mostly below about 6.7%;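 note: stock transfer was 7.5 nL into about 10 µL; 0% = median of vehicle wells and 100% = median of positive control wells; one replicate is shown; the record names a cut of 25% in any replicate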
T cruzi inh = inhibitors of intracellular T. cruzi growth, primary screen, luminescence, NIH3T3 host cells. T. cruzi beta-gal in NIH3T3, 90 h. 300,000 tested, 1.4% active. inhibition, % (concentration not given with the values);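 active = mean inhibition across valid replicates above about 55%, limit read from the data; inconclusive = mean below that limit but half or more replicates reach it; inactive = mean below it, under half of replicates reach it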;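 note: signal also drops with host cell toxicity which is not excluded here; 0% = plate median of DMSO wells and 100% = zero luminescence signal; higher percent means less beta-gal luminescence so fewer parasites; stock transfer was 50 nL into about 50 µL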
Calb FLC = C. albicans growth inhibition with fluconazole, primary screen, CaCi-2 strain, Alamar Blue fluorescence; C. albicans CaCi-2 (fluconazole-resistant clinical isolate) + fluconazole, 48 h; growth inhibition, % (concentration not given with the values); 300,000 tested, 0.57% active;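 active = most replicates above 75%; inconclusive = exactly half above 75%; inactive = most below 75%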;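 note: all wells also contain fluconazole at 8 µg/ml as a sub-toxic cotreatment; 0% = median of DMSO wells and 100% = median of geldanamycin control wells; wells of about 8 µL received 7.5 nL stock; the first replicate is given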
B2AR ag = beta2AR agonists driving receptor internalization, primary screen, cell-based, FAP fluorogen, flow cytometry; response, % (test concentration not listed); Am2.2-beta2AR cells; reference of the scale not given here; AID 504454, 2011; 340,000 tested, 0.43% active; Beta-2 adrenergic receptor (Homo sapiens), P07550;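 active = response above a set limit, near 3 SD of response in nonfluorescent compounds, cut at about 42% in these data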;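 note: stock transfer was 100 nL into about 11 µL; a reference agonist was the positive control; negative values mostly stem from fluorescent compounds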
Target sequence (P07550 whole entry, looked up): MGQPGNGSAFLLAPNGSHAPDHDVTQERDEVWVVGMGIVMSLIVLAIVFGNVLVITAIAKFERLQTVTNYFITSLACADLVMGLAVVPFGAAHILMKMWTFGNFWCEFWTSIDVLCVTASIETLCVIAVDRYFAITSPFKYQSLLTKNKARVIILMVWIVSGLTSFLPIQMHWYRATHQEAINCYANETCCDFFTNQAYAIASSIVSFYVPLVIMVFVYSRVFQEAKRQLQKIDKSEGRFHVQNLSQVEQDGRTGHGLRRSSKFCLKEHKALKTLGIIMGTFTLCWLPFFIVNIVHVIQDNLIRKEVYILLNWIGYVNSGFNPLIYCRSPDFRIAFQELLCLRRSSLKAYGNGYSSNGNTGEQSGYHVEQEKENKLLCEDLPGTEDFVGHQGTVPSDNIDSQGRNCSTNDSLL
ALR inh = inhibitors of human ALR sulfhydryl oxidase, primary screen, biochemical, H2O2 detection, HRP-luminol luminescence, single point | FAD-linked sulfhydryl oxidase ALR (Homo sapiens), P55789 | purified ALR, DTT oxidation | inhibition, % (test concentration not listed) | 290,000 tested, 3.8% active | AID 485317, 2010;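 active = mean and each replicate at 75% or more; inconclusive = only one of the two met; inactive = neither met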;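 note: stock transfer was 7.5 nL into about 7.5 µL; 0% = neutral wells and 100% = wells with inactivated enzyme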
Target sequence (P55789 whole entry, looked up): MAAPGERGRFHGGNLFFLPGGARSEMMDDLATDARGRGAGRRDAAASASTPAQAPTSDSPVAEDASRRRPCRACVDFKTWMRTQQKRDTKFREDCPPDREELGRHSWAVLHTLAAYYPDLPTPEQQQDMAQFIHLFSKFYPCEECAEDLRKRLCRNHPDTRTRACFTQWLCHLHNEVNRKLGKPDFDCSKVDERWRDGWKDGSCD
rRNA inh HTS OD600 = recorded beside rRNA inh HTS, whose call it bears; OD600 change, %; measured here: OD600 growth;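 optical density of the mix in the first replicate; 0 = DMSO median and -100 = no signal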
rRNA inh HTS RFP = second read-out of rRNA inh HTS, no call of its own (marks repeat the call); RFP signal change, %; measured here: RFP humanized mutant strains;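 first replicate; 0 = DMSO median and -100 = no signal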
Numbers without * were called inactive; ? = inconclusive; / = not tested or not shown.

SMILES	rRNA inh HTS	rRNA inh HTS OD600	rRNA inh HTS RFP	Bfl-1 A1 inh	Beta cell apopt	LANA-H2B inh	T cruzi inh	Calb FLC	B2AR ag	ALR inh
CSc1nc(-c2cccs2)c(C#N)c(=O)[nH]1	-24	-27	-7.5	0.0	/	-1.3	2	5	-1	/
Cn1c(=O)[nH]c(=O)c2c1nc(N1CCOCC1)n2CCN1CCOCC1	/	/	/	0.1	-10	0.8	-3	1	6	-8
CC(NC(=O)CNC(=S)N(Cc1cccs1)C1CCCC1)c1ccccc1 (stereo not drawn)	-13	-15	2.4	0.1	0	3.1	-1	-22	7	-4
CCOCCCNC(=O)Cn1cnc2c(cnn2-c2ccc(OC)cc2)c1=O	5	3	0.2	-0.2	-2	-1.3	-1	6	-2	-2
CN(C(=O)COc1cc(=O)n(C)c2ccccc12)c1cccc(Cl)c1	-5	-12	1.7	0.4	-4	3.8	4	-4	-31	/
OCC1CCCN(C(=S)Nc2ccc(Oc3ccccc3)cc2)C1 (stereo not drawn)	-16	-19	-0.8	-0.3	0	0.5	-17	5	-4	-7
CCCCC1CCC(C(=O)OCC(=O)Nc2ccc(S(N)(=O)=O)cc2)CC1 (stereo not drawn)	/	/	/	-0.2	-4	-6.4	-12	?	-2	53
CCN1CCN(c2ccc(S(=O)(=O)N3CCCCC3)cc2NC(=O)c2ccc(F)cc2)CC1	1	-15	13	1.7	-4	-2.3	38	-9	1	/
O=C(c1n[nH]c(=O)c2ccccc12)N1CCN(Cc2ccc3c(c2)OCO3)CC1	4	0	1.8	-0.3	0	-1.7	3	7	5	0
COC(=O)C1(C)NC(=O)c2ccccc2N1 (stereo not drawn)	13	13	0.0	0.2	1	-7.4	1	11	6	-21
Cc1ccc2c(c1)N=C(c1ccccc1)CC(C(Cl)Cl)=N2	15	13	0.7	-8.7	15	-1.8	0	-8	10	-3
COCCn1c(C)cc(C(=O)COc2ccc(N(C)S(=O)(=O)c3ccc(C)cc3)cc2)c1C	-2	-2	6.7	-0.3	17	-0.4	/	/	-4	/
CCCCCCCN1CCC(=O)N([C@H](CO)CC(C)C)CC1	2	-2	-3.4	0.8	1	-0.5	-7	-20	2	-6
COc1cc(OC)cc(-c2nnc(SCC(=O)NCc3cccs3)o2)c1	/	/	/	0.8	-1	1.2	0	0	2	-3
NS(=O)(=O)c1ccc(NC(=S)N2CCN(Cc3ccc(Cl)c(Cl)c3)CC2)cc1	-60	-82	-20	-0.4	-6	-2.4	-2	-2	0	-7
O=C(c1ccc(OC2CCN(CCCc3ccccc3)CC2)cc1)N1CCCC1	6	15	3.2	2.2	11	3.9	4	-32	-4	/
CC(C)(CNC(=O)c1cccc(F)c1)CNC(=O)c1cccc(F)c1	-16	-4	2.2	0.1	0	0.2	/	5	5	-14
C/C(CC(=O)Nc1ccc(Cl)cc1Cl)=N\NC(=O)c1cnccn1	-6	1	1.3	0.7	-5	2.0	-1	-15	10	11
O=C1CCCN1c1cc(Cl)cc(Cl)c1	4	13	-0.3	0.0	0	4.3	0	-14	3	-7
O=C(Oc1ccc(C(=S)N2CCOCC2)cc1)c1ccc(F)cc1	5	6	2.4	0.9	/	-2.3	-5	23	2	3
COc1ccc(OC(C)C(=O)Nc2cccc([N+](=O)[O-])c2)cc1 (stereo not drawn)	/	/	/	0.2	-4	-0.2	5	-7	-1	-6
CCOc1ccc(C=NNc2ccc(S(=O)(=O)Nc3ccccc3C(=O)O)cc2[N+](=O)[O-])cc1	/	/	/	-0.1	3	-0.6	/	/	2	5
Cc1cc(C)c(NC(=O)CS(=O)CC(=O)NCCN2CCCCCC2)c(C)c1 (stereo not drawn)	-1	1	0.8	-1.3	-3	-3.4	-14	-4	7	-14
COC(=O)C1=C(C)N(c2cc(C)cc(C)c2)/C(=C/c2ccco2)C1=O	8	8	-0.4	0.8	14	5.5	32	25	8	4
CCN(C(=O)COc1cc(OC)ccc1C(C)=O)C1CCS(=O)(=O)C1 (stereo not drawn)	-1	3	-2.0	-0.4	-1	0.0	/	/	-2	-4

Further entries follow.
SMILES	rRNA inh HTS	rRNA inh HTS OD600	rRNA inh HTS RFP	Bfl-1 A1 inh	Beta cell apopt	LANA-H2B inh	T cruzi inh	Calb FLC	B2AR ag	ALR inh
CCCc1ccc(NC(=O)C2CCN(c3cnccn3)CC2)cc1	-9	-5	0.6	/	/	/	-2	-4	0	13
Cc1ccccc1CSc1nc2c(c(=O)[nH]1)CCCC2	/	/	/	1.6	-6	0.3	8	-1	/	-3
COC(Cn1c2c(c3cc(C)ccc31)CCCC2NCc1ccccc1)OC (stereo not drawn)	-46	-53	-12	/	/	/	10	0	10	/
CCCOc1ccc(C(=O)CCNc2ccc(C)c(Cl)c2)cc1	/	/	/	-0.9	-3	-2.9	-1	4	-2	-6
CC(=O)Nc1ccc(-n2nnnc2SCC(=O)NC2CCCC2)cc1	3	0	3.3	-0.1	/	2.7	2	-1	3	-1
CC1C(=O)NN=C1C(=O)N/N=C/c1cccs1 (stereo not drawn)	17	5	3.0	-2.9	10	3.9	2	0	-3	60
COc1ccc(C(=O)NC(C)c2cccnc2)cc1S(=O)(=O)N(C)Cc1ccccc1 (stereo not drawn)	0	-10	-3.3	2.2	-2	-4.8	/	/	8	-4
Cn1c(C(=O)N2CCCc3ccccc32)cc2c(=O)n3ccccc3nc21	/	/	/	0.9	-2	5.9	3	-5	/	3
CCCn1nnc(NC(=S)NC(=O)CC)n1	/	/	/	-0.4	3	3.2	-16	19	-3	22
OC1(c2ccc(Br)cc2)CN(c2ccccc2)C2=[N+]1CCS2 (stereo not drawn)	17	14	1.9	0.4	24	2.9	-1	-21	-1	/
COc1ccc(Cl)cc1NC(=O)CN(C)CC(=O)Nc1ccccc1N1CCOCC1	-9	15	-1.3	0.4	20	-0.8	7	-5	-5	/
CCCS(=O)(=O)c1nc(S(=O)(=O)c2ccc(C)cc2)c(N2CCN(CCO)CC2)s1	8	-3	1.2	-1.0	-30	-1.7	-3	?	-1	2
O=C(NCC1COc2ccccc2O1)C1CCCN(S(=O)(=O)c2cccc3cccnc23)C1 (stereo not drawn)	-13	-21	1.7	-0.9	0	-0.2	/	/	41	-5
CCN1C(=O)N[C@@H](c2cccc(C(F)(F)F)c2)C(C(=O)OC)=C1C	-10	-3	-14	-0.9	-5	6.6	9	0	-6	-7
O=C1C(Cl)=C(NC2CCCCC2)C(=O)N1Cc1ccccc1	-39	-55	0.3	-0.2	/	1.9	21	2	-8	-1
O=C(Cn1cc(C(F)(F)F)ccc1=O)N/N=C/c1ccc(Cl)cc1Cl	/	/	/	-0.1	-5	-1.8	3	-3	-7	-10
O=S(=O)(N/N=C\C=C\c1ccccc1)c1ccc(Cl)cc1	/	/	/	-0.1	-25	1.5	-6	48	-2	10
CCCN1CCN(CCNC(=O)Nc2ccccc2Cl)CC1	10	12	-0.6	0.5	-2	0.1	-2	22	-1	-17
Cc1ccc(S(=O)(=O)Cc2ccc(C(=O)OCc3ccccc3)cc2)cc1	/	/	/	0.8	5	-2.7	-12	3	7	-3
OCCn1c(C(F)(F)F)nc2ccccc21	/	/	/	-0.7	-2	0.3	0	-3	-3	-10
C/C(O)=C(\C#N)P(=O)(c1ccccc1)c1ccccc1	26	7	7.2	0.0	-2	0.2	-8	-2	-1	-23
Cc1ccc(C(=O)NCCc2cccc(Cl)c2)cc1[N+](=O)[O-]	/	/	/	0.0	18	-4.9	0	-14	-8	-3
CCCn1nc(C(=O)Nc2cc(S(=O)(=O)Nc3ccc(OC)cc3)ccc2O)c2ccccc2c1=O	-12	-8	4.4	0.7	3	0.3	/	/	3	-11
COC(=O)Nc1sc2c(c1C(N)=O)CCCCCC2	/	/	/	-0.3	-1	0.2	-6	-1	3	11
COc1ccccc1NC(=O)Cn1nc(C(F)(F)F)c2c1CCCC2	/	/	/	-0.3	3	-3.0	-4	?	-5	-16

New compounds follow
SMILES	rRNA inh HTS	rRNA inh HTS OD600	rRNA inh HTS RFP	Bfl-1 A1 inh	Beta cell apopt	LANA-H2B inh	T cruzi inh	Calb FLC	B2AR ag	ALR inh
O=C(O)CCC(=O)Nc1ccc(-c2nc3ccc(C(=O)c4ccccc4)cc3[nH]2)cc1	-14	-5	-4.5	0.4	-5	3.2	-9	10	0	55
CCOc1ccc(N2C(=O)CC(NCCNc3ccc(C(=O)c4cccs4)cc3)C2=O)cc1 (stereo not drawn)	-4	-26	-6.4	0.0	-6	6.6	10	2	0	/
COC(=O)c1ccc2c(c1)N(Cc1nc(-c3ccc(Cl)cc3)oc1C)C(=O)C1CCCN21 (stereo not drawn)	0	-6	0.8	1.0	-1	0.6	19	3	19	/
Cc1ccc(S(=O)(=O)n2c(N)nc3ccccc32)cc1	3	4	0.7	1.4	-7	-3.5	5	-1	-1	/
CN1CCN(C(=O)CSc2nnc(COc3ccccc3)o2)CC1	2	-1	-1.8	0.1	/	3.2	14	-1	8	-7
CCn1c(CNc2cccc(C(F)(F)F)c2)n[nH]c1=S	3	-9	-1.2	-0.1	1	3.2	4	?	3	40
O=C(CCN1CCN(c2ccccc2F)CC1)c1ccc(Br)cc1	/	/	/	0.4	-12	2.6	-5	-7	-3	11
CSCCC(NS(=O)(=O)c1ccc(C)cc1)C(=O)NNC(=O)c1csc(N2CCOCC2)n1 (stereo not drawn)	1	5	-2.0	-0.7	-5	-3.1	-1	-6	1	-13
CC(C)(C)c1ccc(NC(=O)N2CCN(c3ccc([N+](=O)[O-])cn3)CC2)cc1	-3	-1	5.3	0.4	17	6.4	3	-3	9	-7
COCCCN=Cc1c(-c2ccccc2)[nH]n(-c2nc3ccccc3s2)c1=O	-28	-12	31	0.0	-7	-1.4	3	-2	-4	-30
CCC(C)c1ccc(NC(=O)CC(C)=O)cc1 (stereo not drawn)	/	/	/	0.7	/	1.0	-7	2	5	31
O=C(COC(=O)C1CCCCC1)Nc1cc([N+](=O)[O-])ccc1F	8	-8	-2.8	-0.3	-6	0.7	-2	-7	1	0
Cc1cc(C)c(C#N)c(OCC(=O)c2ccc(Br)cc2)n1	/	/	/	0.0	16	-2.3	18	-40	-6	1
COc1cccc(C(=O)Nc2c3c(nn2-c2ccc([N+](=O)[O-])cc2)CS(=O)(=O)C3)c1	15	14	2.7	-0.4	/	2.6	-2	6	3	-4
CC(=O)Nc1ccc(S(=O)(=O)NC2(C(F)(F)F)C(=O)Nc3c2c(=O)n(C)c(=O)n3C)cc1 (stereo not drawn)	14	16	-6.6	0.1	-5	0.1	2	-26	4	2
O=C(CSc1nnc(-c2cccs2)n1CC1CCCO1)N1CCCC1 (stereo not drawn)	10	3	-2.4	0.8	-6	-3.4	3	27	-8	-2

Only part of the results is shown; count on the stated rates, not on these rows.
